# Beta2AR agonist: beta2AR agonists driving receptor internalization, primary screen, cell-based, FAP fluorogen, flow cytometry; response, % (concentration not given with the values); AID 504454, 2011; 340,000 compounds, 0.43% hits; Beta-2 adrenergic receptor (Homo sapiens), P07550; Am2.2-beta2AR cells; reference of the scale not given here;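 active = response above a set limit, near 3 SD of response in nonfluorescent compounds, cut at about 42% in these data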;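 note: stock transfer was 100 nL into about 11 µL; a reference agonist was the positive control; negative values mostly stem from fluorescent compounds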
# Target sequence (P07550 whole entry, looked up): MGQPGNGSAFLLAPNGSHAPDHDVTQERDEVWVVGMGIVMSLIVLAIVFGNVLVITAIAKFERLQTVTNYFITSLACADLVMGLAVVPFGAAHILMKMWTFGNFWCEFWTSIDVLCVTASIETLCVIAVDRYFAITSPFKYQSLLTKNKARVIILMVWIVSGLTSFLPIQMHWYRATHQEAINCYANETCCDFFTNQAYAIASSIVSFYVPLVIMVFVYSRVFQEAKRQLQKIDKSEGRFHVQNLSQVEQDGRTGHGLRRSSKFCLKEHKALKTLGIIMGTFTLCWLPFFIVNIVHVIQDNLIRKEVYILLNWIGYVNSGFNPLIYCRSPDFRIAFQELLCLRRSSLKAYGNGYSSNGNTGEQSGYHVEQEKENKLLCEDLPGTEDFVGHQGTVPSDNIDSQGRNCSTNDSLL
# A1 inh: caspase 3/7 activation in MEF A1-2A-BIM cells, primary screen, A1 inhibitor project, cell-based, luminescence, HTS; Caspase-Glo 3/7 luminescence, 3 h; percent of clofoctol response, vehicle zero; caspase activation, % (concentration not given with the values); 330,000 compounds, 0.066% hits;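 active = over half of replicate activation scores above 10%, or exactly half above 10 with the replicate mean above 10; inconclusive = replicate mean below 10 yet half the replicates above 10; inactive = over half of replicates below 10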;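 note: wells of about 30 µL received 50 nL stock; many hits fall short of the cut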
# LANA-H2B inh: blockers of LANA interaction with H2A/H2B – biochemical, FP readout, HTS, primary screen. Protein LANA1 (Human herpesvirus 8 type P (isolate GK18)), Q9QR71. cell-free LANA-H2A/H2B peptide, fluorescence polarization. inhibition, % (concentration not given with the values). 320,000 compounds, 0.6% hits. AID 2629, 2010; in the data active = inhibition mostly above about 10%, no sharp cut-off; inactive = mostly below about 6.7%;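 note: stock transfer was 7.5 nL into about 10 µL; 0% = median of vehicle wells and 100% = median of positive control wells; one replicate is shown; the record names a cut of 25% in any replicate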
# rRNA inh HTS: reduced GFP signal of wild-type E. coli, primary screen, bacterial rRNA inhibitor project, GFP/RFP fluorescence, OD600, single point; E. coli WT GFP vs humanized-ribosome RFP mutants, 24 h; active compounds read low; DMSO median 0, no signal -100; GFP signal change (wild-type ribosome), % (no concentration beside the values); 350,000 compounds, 1.6% hits; AID 720706, 2013;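 active = significant combined selectivity score with lowered wild-type GFP, culture density cut under 30%, mutant RFP and density less affected; inactive = any of these conditions unmet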; note: one replicate is shown; some compounds called inactive have numbers as strong as hits
# Calb FLC: C. albicans growth inhibition with fluconazole, primary screen, CaCi-2 strain, Alamar Blue fluorescence. C. albicans CaCi-2 (fluconazole-resistant clinical isolate) + fluconazole, 48 h. growth inhibition, % (no concentration beside the values). 300,000 compounds, 0.57% hits. AID 1979, 2009;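 active = most replicates above 75%; inconclusive = exactly half above 75%; inactive = most below 75%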;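 note: all wells also contain fluconazole at 8 µg/ml as a sub-toxic cotreatment; 0% = median of DMSO wells and 100% = median of geldanamycin control wells; wells of about 8 µL received 7.5 nL stock; the first replicate is given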
# ALR H2O2 inh: inhibitors of human ALR sulfhydryl oxidase, primary screen, biochemical, H2O2 detection, HRP-luminol luminescence, single point. purified ALR, DTT oxidation. FAD-linked sulfhydryl oxidase ALR (Homo sapiens), P55789. inhibition, % (concentration not given with the values). AID 485317, 2010. 290,000 compounds, 3.8% hits;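 active = mean and each replicate at 75% or more; inconclusive = only one of the two met; inactive = neither met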;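 note: stock transfer was 7.5 nL into about 7.5 µL; 0% = neutral wells and 100% = wells with inactivated enzyme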
# Target sequence (P55789 whole entry, looked up): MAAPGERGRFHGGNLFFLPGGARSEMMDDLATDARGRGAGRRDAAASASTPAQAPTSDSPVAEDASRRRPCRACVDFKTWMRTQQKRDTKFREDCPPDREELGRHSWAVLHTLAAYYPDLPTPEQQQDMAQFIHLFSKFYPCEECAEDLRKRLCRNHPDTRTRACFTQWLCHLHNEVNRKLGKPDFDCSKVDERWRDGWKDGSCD
# T cruzi repl: inhibitors of intracellular T. cruzi growth, primary screen, luminescence, NIH3T3 host cells. T. cruzi beta-gal in NIH3T3, 90 h. inhibition, % (test concentration not listed). 300,000 compounds, 1.4% hits. AID 1885, 2009;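 active = mean inhibition across valid replicates above about 55%, limit read from the data; inconclusive = mean below that limit but half or more replicates reach it; inactive = mean below it, under half of replicates reach it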;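 note: signal also drops with host cell toxicity which is not excluded here; 0% = plate median of DMSO wells and 100% = zero luminescence signal; higher percent means less beta-gal luminescence so fewer parasites; stock transfer was 50 nL into about 50 µL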
# Beta cell apopt: inhibitors of cytokine-induced beta cell apoptosis, primary screen, luminescence; 300,000 compounds, 0.8% hits; INS-1E cytokine-induced death, ATP luminescence, 48 h; percent of positive-control rescue, neutral wells zero; protection from apoptosis, % (test concentration not listed); AID 435005, 2010;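 active = all replicates at 75% or more, or half of them and the mean; inconclusive = half reach 75% but not the mean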;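 note: 0% = cytokine-treated negative control wells and 100% = positive control rescue; higher means more ATP so stronger rescue from cytokine killing; wells of about 40 µL received 100 nL stock; the first replicate is given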
# rRNA inh HTS OD600: recorded beside rRNA inh HTS, whose call it bears; OD600 change, %; measured here: OD600 growth;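 optical density of the mix in the first replicate; 0 = DMSO median and -100 = no signal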
# rRNA inh HTS RFP: further read-out of rRNA inh HTS, marked with its call; RFP signal change, %; measured here: RFP humanized mutant strains;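 first replicate; 0 = DMSO median and -100 = no signal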
# * marks the source's active call; other numbers are inactive results; ? = inconclusive; . = no result given. A portion of the library. The share of hits here may be higher or lower than overall.
# Every second line gives: Beta2AR agonist	A1 inh	LANA-H2B inh	rRNA inh HTS	rRNA inh HTS OD600	rRNA inh HTS RFP	Calb FLC	ALR H2O2 inh	T cruzi repl	Beta cell apopt
- CCOC(=O)C(C)Oc1cccc2c(=O)n(CC(=O)NCc3ccc4c(c3)OCO4)ccc12 (centres undefined)
 : 31	-0.1	3.3	-1	6	-1.5	-2	-6	-15	17
- O=S(=O)(c1ccc2c(c1)CCN2)N1CCCC1
 : -4	0.8	-393	4	1	-2.1	.	98*	.	-3
- CC1(C)NC(=O)N(CC(O)CN2CCOCC2)C1=O (centres undefined)
 : 12	0.4	1.8	.	.	.	-3	-37	3	-5
- Cc1ccc(N2CC(C(=O)Nc3nnc(SCC(=O)NCC4CCCO4)s3)CC2=O)cc1C (centres undefined)
 : 1	1.2	-2.2	3	7	4.0	-2	47	-1	-2
- Cc1cccc(N2CCN(C(=O)COc3ccc4ccc(=O)oc4c3)CC2)c1C
 : 0	0.0	-1.6	-4	-24	0.1	24	-2	2	-4
- O=C(NC(Cc1ccccc1)C(=O)O)/C(=C/c1ccc([N+](=O)[O-])cc1)NC(=O)c1ccco1 (centres undefined)
 : -2	1.3	-8.6	6	5	-2.4	-7	.	-6	-2
- O=C(Nc1ccc(C(=O)NCC2CCN(Cc3ccccc3F)CC2)cc1)C1=CSCCO1
 : 15	0.5	-1.3	3	-3	1.7	-3	-3	-14	-2
- CC1Sc2ccc(S(=O)(=O)N3CCN(c4cccc(Cl)c4)CC3)cc2NC1=O (centres undefined)
 : -2	0.1	2.3	-2	-12	0.6	4	7	9	3
- COCC(=O)Nc1c(I)c(C(=O)NCC(O)CO)c(I)c(C(=O)N(C)CC(O)CO)c1I (centres undefined)
 : -3	0.5	1.6	11	12	1.8	.	-12	.	3
- CCCCn1c(N)c(N(CC(C)C)C(=O)CSCC(=O)Nc2ccc(C)cc2)c(=O)[nH]c1=O
 : 8	-0.1	0.4	.	.	.	.	.	.	-2
- CCOC(=O)C1CCN(C(=O)c2ccc3c(c2)NC(=O)/C(=C/c2ccccc2)S3)CC1
 : 14	0.4	2.8	-8	-5	-1.7	3	-19	9	-4
- COc1ccc(C2c3c(-c4cc(Cl)c(C)cc4O)n[nH]c3C(=O)N2Cc2cccnc2)cc1OC (centres undefined)
 : -18	0.5	4.2	.	.	.	16	2	3	17
- c1ccn2cc(CSc3nnc4ccccn34)nc2c1
 : -11	-1.9	-2.0	1	5	2.1	-14	-1	-17	-1
- Nc1nonc1-n1nnc(C(=O)N/N=C/c2cccc(Cl)c2)c1-c1cccs1
 : 6	-0.7	-4.5	-17*	6.0*	0.6*	5	-1	6	-14
- c1ccc(N(c2ccccc2)c2nc(-n3ccnc3)nc(-n3ccnc3)n2)cc1
 : 8	-0.5	6.1	.	.	.	-9	0	47	8
- COc1ccc(CCC(=O)OCC(=O)Nc2sccc2C(N)=O)cc1OC
 : -5	-1.2	-3.4	-3	3	-8.8	.	.	.	-1
- COCCCNCCOc1ccc(C)cc1[N+](=O)[O-]
 : 0	0.3	-1.4	.	.	.	-1	-20	13	-7
- OCC1CCCN(C(=S)Nc2ccc(Nc3ccccc3)cc2)C1 (centres undefined)
 : -4	-0.2	-6.3	-27*	-18*	6.7*	-16	100*	-2	-5
- O=C(N/N=C/c1ccc(OC(F)F)cc1)c1ccc(Br)cc1
 : 7	0.5	-0.8	.	.	.	-6	1	12	6
- Cc1ccc(C)c(NC(=O)Cn2nnc(C(=O)Nc3c(C)cccc3C)c2N)c1
 : -2	0.3	4.9	.	.	.	-3	-7	-5	-5

# Following part.
# Every second line gives: Beta2AR agonist	A1 inh	LANA-H2B inh	rRNA inh HTS	rRNA inh HTS OD600	rRNA inh HTS RFP	Calb FLC	ALR H2O2 inh	T cruzi repl	Beta cell apopt
- O=C(NC1CCN(S(=O)(=O)c2ccc(F)cc2)CC1)c1ccc(F)cc1
 : -3	0.4	-5.8	24	15	1.0	-10	-2	8	1
- COc1ccc(OC)c(/C=N/NC(=O)c2csc3ccccc23)c1
 : 3	0.0	-3.3	.	.	.	2	-13	-9	-10
- O=C(CN1CCOc2ccccc21)NC1CCCCCCC1
 : 4	0.7	0.7	-4	-4	1.1	-11	99*	0	-4
- CN(C)S(=O)(=O)c1cccc(NC(=O)COC(=O)c2ccc(Br)o2)c1
 : 1	-0.7	1.2	.	.	.	.	-7	5	-2
- CCc1ccc(/C=C2\SC(=S)N(CCCC(=O)Nc3ccccn3)C2=O)cc1
 : -11	-1.7	-2.3	.	.	.	-3	-6	62*	-7
- COc1cc(OC)cc(C(=O)NCC(=O)OCC(=O)N2CCc3ccccc32)c1
 : 4	0.5	-4.1	9	5	3.8	-1	-9	-20	1
- CCOC(=O)C1=C(N)OC2=C(C(=O)CC(C)(C)C2)C1c1ccccc1OC (centres undefined)
 : 4	0.8	-5.3	7	11	0.0	13	3	-18	-1
- CNc1ccc(Br)cc(C(=O)/C=C/c2cccc(OC)c2)c1=O
 : 16	0.6	-2.4	.	.	.	-5	8	-20	.
- COC(=O)Nc1ccc(C)cc1NC(=O)OC
 : 9	0.5	1.8	.	.	.	-4	0	-12	-5
- CC(C)(C)c1ccc(OCC(=O)NCc2ccco2)c(Br)c1
 : 2	0.6	-0.3	.	.	.	7	26	13	-6
- O=C1C=C(c2ccc(Cl)cc2)C(=O)N1Nc1ccccc1
 : 15	0.2	-2.2	.	.	.	-2	21	44	0
- COc1ccc(CN=C2NN=C(c3ccc(Cl)cc3)CS2)cc1
 : -4	-0.4	0.0	12	5	-2.7	12	-2	-4	-6
- Cn1cnc2c(N3CCCCC3)nccc21
 : -5	-0.3	5.7	.	.	.	20	3	-9	2
- COC(=O)c1cc(S(=O)(=O)N2CCCC2=O)c(Cl)cc1Cl
 : 5	0.7	17	-1	2	0.6	-2	5	-12	2
- O=Cc1sc(N2CCOCC2)nc1-c1ccccc1
 : .	1.0	-7.3	.	.	.	11	22	-10	-14
- CCC(C(=O)NCc1ccc(OC)cc1)n1nc(C)n2c(cc3occc32)c1=O (centres undefined)
 : -5	0.4	2.9	.	.	.	-1	-4	-3	-6
- CC(NC(=O)Cc1ccc(NC2=NC3CS(=O)(=O)CC3S2)cc1)c1ccccc1 (centres undefined)
 : 6	0.6	1.4	7	5	0.0	-3	-3	-13	1
- CC(C1CC2CCC1C2)n1c(COc2ccccc2F)nnc1SCC(N)=O (centres undefined)
 : -13	0.1	-6.5	.	.	.	6	-1	12	-6
- COc1ccc(CN(CC(=O)NC2CCCC2)C(=O)CCC(=O)Nc2nccs2)cc1
 : 8	0.6	-0.8	16	30	1.5	-1	-11	?	-7
- O=C(N/N=C/c1cn(-c2ccccc2)nc1-c1cccnc1)c1ccc(F)cc1
 : -8	-0.3	-2.0	-25*	-14*	0.8*	4	-1	-7	5

# Three entries out of the list above, arranged by the value under Beta2AR agonist, ascending:
Compound | Beta2AR agonist | A1 inh | LANA-H2B inh | rRNA inh HTS | rRNA inh HTS OD600 | rRNA inh HTS RFP | ALR H2O2 inh
COc1ccc(CN=C2NN=C(c3ccc(Cl)cc3)CS2)cc1 | -4 | -0.4 | 0.0 | 12 | 5 | -2.7 | -2
COC(=O)c1cc(S(=O)(=O)N2CCCC2=O)c(Cl)cc1Cl | 5 | 0.7 | 17 | -1 | 2 | 0.6 | 5
CC(NC(=O)Cc1ccc(NC2=NC3CS(=O)(=O)CC3S2)cc1)c1ccccc1 (centres undefined) | 6 | 0.6 | 1.4 | 7 | 5 | 0.0 | -3

# (cont.)
# Every second line gives: Beta2AR agonist	A1 inh	LANA-H2B inh	rRNA inh HTS	rRNA inh HTS OD600	rRNA inh HTS RFP	Calb FLC	ALR H2O2 inh	T cruzi repl	Beta cell apopt
- Fc1ccc(/C=N/Nc2nn[nH]n2)cc1
 : 0	-0.8	-9.4	.	.	.	-33	10	?	-1
- CC(=O)c1c(-c2ccc(C)cc2)nc2c3ccccc3ccn12
 : -19	0.7	2.7	-10	2	-3.0	7	.	37	-2
- CC(=O)N1c2ccccc2-c2nc3ccccc3n2C1C (centres undefined)
 : -2	1.2	0.2	10	4	0.8	0	-2	-11	-8
- CC(C)=CC(=O)N1CCC(N2CCC(C(=O)N3CCOCC3)CC2)CC1
 : -9	-0.1	0.1	11	10	-0.6	22	-3	10	0
- O=C1CN(C(=O)CSc2nnnn2C2CC2)c2ccccc2N1
 : 4	0.6	-0.4	3	12	-1.1	.	-3	.	-1
- COc1ccc(N(CC(=O)NCC2CCCO2)S(=O)(=O)c2ccc(C)cc2)cc1OC (centres undefined)
 : -3	-0.2	1.4	.	.	.	-3	6	12	-1
- COc1ccc(NS(=O)(=O)c2cccc(NC(=O)C34CCC(CC3)C4)c2)cc1
 : -5	-1.0	3.6	-10	-9	12	3	-16	-29	-1
- c1ccc(-n2c(-c3ccco3)nnc2N2CCOCC2)cc1
 : 10	0.9	1.5	.	.	.	?	4	-7	.
- O=S(=O)(NN=C1CCCCCC1)c1ccccc1
 : 4	-0.3	1.8	11	11	3.6	-15	6	-1	.
- Cc1[nH]c(C)c(S(=O)(=O)N(Cc2ccccc2)C(C)(C)C)c1C(=O)N1CCCC1
 : 0	0.9	-5.4	-1	3	1.6	7	-9	3	1
- CSc1ncc(C(=O)Nc2cccc(S(N)(=O)=O)c2)n1-c1ccccc1
 : -4	-0.5	0.9	3	3	0.0	10	1	2	1
- C=C/C(C)=C/CC1C(=C)CCC2C(C)(C(=O)O)CCCC12C (centres undefined)
 : 2	0.5	1.2	-1	10	-12	-1	0	-19	.
- CC(=O)NC(c1ccc([N+](=O)[O-])cc1)c1c(O)ccc2ccccc12 (centres undefined)
 : 6	-0.5	2.9	-12	-25	-3.5	-7	-25	-14	-1
- C/C(NC(=O)c1cccc(F)c1)=C1/C(=O)C[C@@H]2[C@H]1C2(C)C
 : 4	0.0	-0.7	.	.	.	17	.	11	-1
- Cc1nn(CC(=O)NCCCN2CC(C)CC(C)C2)c(=O)c2cccn12 (centres undefined)
 : 4	0.2	1.6	-4	-3	4.7	3	12	11	6
- CCOC(=O)c1c(N)sc(C(=O)Nc2ccc3c(c2)OCO3)c1C
 : -8	-10	-1.4	.	.	.	4	-3	-1	12

# Part of the list above, showing only rRNA inh HTS and Calb FLC:
Molecule,rRNA inh HTS,Calb FLC
Fc1ccc(/C=N/Nc2nn[nH]n2)cc1,.,-33
C/C(NC(=O)c1cccc(F)c1)=C1/C(=O)C[C@@H]2[C@H]1C2(C)C,.,17
CC(C)=CC(=O)N1CCC(N2CCC(C(=O)N3CCOCC3)CC2)CC1,11,22
O=C1CN(C(=O)CSc2nnnn2C2CC2)c2ccccc2N1,3,.
